From PubChem
liver stage: Plasmodium liver-stage growth inhibition, dose response, imaging, Malaria Box, P. yoelii, HepG2-A16-CD81EGFP (AID 602156). P. yoelii liver stage in HepG2-A16-CD81EGFP, imaging; first-round cut-off not given here. calls after a first round at 10 µM; hits with a dose series show IC50 in µM. 4.8% of 5,700 active; in the data active means a potency from the dose series;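 further: infected cells exposed to compound for 48 hours before fixation; stained parasite area by imaging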
* marks the source's active call; other numbers are inactive results; i = inactive.

SMILES	liver stage
COc1ccccc1/C=C/C1=NC(=C\c2ccc(SC)cc2)/C(=O)O1	i
Cc1cc(C)n(N=Cc2ccc(Cl)cc2)c(=O)c1C#N	i
Fc1ccc(CNc2ccnc3cc(Cl)ccc23)cc1	i
S=C(NCc1ccco1)NN=CC=NNC(=S)NCc1ccco1	i
CCN1C(=Cc2ccc3ccccc3[n+]2CC)Sc2c1ccc1ccccc21	i
CC(C)(C)CC(C)(C)Nc1c(-c2ccccc2OC(=O)c2ccccc2F)nc2ccccn12	i
N=c1n(Cc2ccccc2)c2ccccc2n1CC(O)c1ccc(Br)cc1 (centres undefined)	i
COc1ccc(C(=O)C(C)[n+]2ccccc2-c2ccccn2)cc1 (centres undefined)	i
CCN1CCN(CC=Cc2ccccc2[N+](=O)[O-])CC1	i
CCC(=Nc1ccc(OC)cc1)C1=C(O)CC(C)(C)CC1=O	i
O=C(C1CC1)N1CCc2cc(Br)cc(S(=O)(=O)N3CCCCC3)c21	i
O=C(NCCc1ccccc1)c1cnc(NCCCn2ccnc2)nc1NCC1CCCCC1	i
COc1cccc2cc(-c3nc(-c4ccccc4)cs3)c(=O)oc12	i
O=C1C(NC2CCCC2)=C(N2CCOCC2)C(=O)c2ccccc21	i
COc1cccc(C(=O)NC(c2ccc(Cl)cc2)c2cc(Cl)c3cccnc3c2O)c1 (centres undefined)	i
Cc1cc(C)n(-c2ccc(NC(=O)C3CCN(Cc4cc(C)c(C)o4)CC3)cc2)n1	i
COc1ccc(C[n+]2cc(-c3ccc(Cl)cc3)n3ccccc32)cc1	i
CCOC(=O)c1cnc2ccc(OC)cc2c1Cl	0.41µM*
Cc1ccc(C)c(Oc2c(C(F)(F)F)oc3c(CN4CCN(C)CC4)c(O)ccc3c2=O)c1	i
Oc1ccc(C2Nc3ccc4ccccc4c3C3C=CCC32)cc1 (centres undefined)	i
COCCOC(=O)C1=C(C)NC2=C(C(=O)CC(c3ccc(OC)cc3)C2)C1c1ccc(Cl)cc1 (centres undefined)	i
CCOC(=O)CN1C(=O)c2ccccc2Sc2ncccc21	i
CC(C)c1ccc(C=NNC(=O)c2ccccc2O)cc1	i
Cc1ccn2c(NC(C)(C)CC(C)(C)C)c(-c3ccccc3OC(=O)CCC3CCCC3)nc2c1	i
Oc1ccc2ccccc2c1CNc1nc2ccccc2[nH]1	i
COc1ccc(-c2cc3c(nn2)-c2ccccc2C3=O)cc1	i
O=C(Nc1ccccc1)C(=Cc1ccncc1)NC(=O)c1ccccc1	i
O=C(ON(C(=O)c1ccc(F)cc1)C1C2CC3CC(C2)CC1C3)c1ccc(F)cc1 (centres undefined)	i
FC(F)(F)c1cccc(NC(=S)N2CCCC2c2ccccc2Cl)c1 (centres undefined)	i
CCN(CC)S(=O)(=O)c1ccc2[nH]cc(C(=O)NCCCN3CCN(c4ccc(OC)cc4)CC3)c(=O)c2c1	i

Already shown: an excerpt of the list.
SMILES	liver stage
COc1ccccc1/C=C/C1=NC(=C\c2ccc(SC)cc2)/C(=O)O1	i
Cc1cc(C)n(N=Cc2ccc(Cl)cc2)c(=O)c1C#N	i
Fc1ccc(CNc2ccnc3cc(Cl)ccc23)cc1	i
S=C(NCc1ccco1)NN=CC=NNC(=S)NCc1ccco1	i
CCN1C(=Cc2ccc3ccccc3[n+]2CC)Sc2c1ccc1ccccc21	i
CC(C)(C)CC(C)(C)Nc1c(-c2ccccc2OC(=O)c2ccccc2F)nc2ccccn12	i
N=c1n(Cc2ccccc2)c2ccccc2n1CC(O)c1ccc(Br)cc1 (centres undefined)	i
COc1ccc(C(=O)C(C)[n+]2ccccc2-c2ccccn2)cc1 (centres undefined)	i
CCN1CCN(CC=Cc2ccccc2[N+](=O)[O-])CC1	i
CCC(=Nc1ccc(OC)cc1)C1=C(O)CC(C)(C)CC1=O	i
O=C(C1CC1)N1CCc2cc(Br)cc(S(=O)(=O)N3CCCCC3)c21	i
O=C(NCCc1ccccc1)c1cnc(NCCCn2ccnc2)nc1NCC1CCCCC1	i
COc1cccc2cc(-c3nc(-c4ccccc4)cs3)c(=O)oc12	i
O=C1C(NC2CCCC2)=C(N2CCOCC2)C(=O)c2ccccc21	i
COc1cccc(C(=O)NC(c2ccc(Cl)cc2)c2cc(Cl)c3cccnc3c2O)c1 (centres undefined)	i
Cc1cc(C)n(-c2ccc(NC(=O)C3CCN(Cc4cc(C)c(C)o4)CC3)cc2)n1	i
COc1ccc(C[n+]2cc(-c3ccc(Cl)cc3)n3ccccc32)cc1	i
CCOC(=O)c1cnc2ccc(OC)cc2c1Cl	0.41µM*

More compounds.
SMILES	liver stage
Cc1ccccc1OCc1nnc(SCC(=O)Nc2ccc([N+](=O)[O-])cc2)n1C	i
COc1ccccc1N1CCN(C(=O)Nc2ccc3ccccc3c2)CC1	i
CCCCCCN(C(=O)c1ccc(C(C)(C)C)cc1)C(CC)c1nc2ccccc2c(=O)n1-c1ccc(F)cc1 (centres undefined)	i
COCCNCC(O)CON=C1c2ccccc2-c2ccccc21 (centres undefined)	i
Cc1ccc(Nc2cc(C)nc(NCc3ccccc3)n2)cc1	i
Cc1nc2ccc(NC(=O)C3CC3)cc2c(=O)n1Cc1ccc(Cl)cc1	i
Cc1[nH]c2ccccc2c(=O)c1CC=C(Cl)Cl	0.13µM*
COc1ccc(C(=O)ON=C(N)Cc2ccc(Cl)cc2Cl)cc1[N+](=O)[O-]	i
COc1cc(Cl)c(C)cc1NC(=O)C1c2ccccc2C(=O)N(CC(C)C)C1c1cccs1 (centres undefined)	i
CCCCSc1ncnc2c1c(-c1ccccc1)cn2-c1cccc(F)c1	i
Cc1cc(-c2cn[nH]c2C2CCCN(C(=O)Cc3ccccc3F)C2)on1 (centres undefined)	i
Cc1cccc2c1[nH]c1nc(SCC(C)C)nnc12	0.15µM*
CCNc1nc(NC(C)CC)nc(ON=C(C)C)n1 (centres undefined)	i
Cc1cccc(-n2ccnc2SCC(=O)Nc2cc(C(F)(F)F)ccc2Cl)c1	i
Cc1ccc(C)c(N2C(=O)CC(Cc3ccc(Cl)cc3)C2=O)c1 (centres undefined)	i
CCN(CC)CCCC(C)Nc1ccnc2ccc([N+](=O)[O-])cc12 (centres undefined)	i
CCCCN1C(=O)N(c2ccccc2C)C(C)(O)CC1(C)C (centres undefined)	i
O=[N+]([O-])c1ccc(N2CCN(c3nc(NCCc4c[nH]c5ccccc45)c4ccccc4n3)CC2)cc1	i
Cc1c(CN2CCC(N3CCC(C(=O)NC4CC4)CC3)CC2)[nH]c2c(Cl)cccc12	i
COc1cccc(-c2ccc(O)c(CN3CCC(C)CC3)c2)n1	i
COc1ccc(-c2cnc3ccc(NCc4cccc(Cl)c4)nn23)cn1	i
CC1Cc2ccc(F)cc2CN1C(=O)c1ccc(COc2ccccc2Br)o1 (centres undefined)	i
Cc1cc(Nc2ccc(Br)cc2)n2nc(C)nc2n1	i
CC(C)(C)CC(C)(C)c1ccc(OCC(=O)N=Nc2c(O)[nH]c3ccccc23)c([N+](=O)[O-])c1	i
N=c1c2c(n(Cc3ccc([N+](=O)[O-])cc3)c3c1CCC3)CCCC2	i
NC(=O)C(Cc1ccccc1)Nc1ccc([N+](=O)[O-])cc1[N+](=O)[O-] (centres undefined)	i
COc1ccc(/C=C/C(=O)Nc2ccncc2)cc1OC	i
O=C(Nc1ccc2oc(-c3ccccc3F)nc2c1)c1ccc([N+](=O)[O-])o1	i
CCOC(=O)C1=CN(c2cc(C)ccc2C)C=C(C(=O)OCC)C1c1ccccc1OCC	i
Cc1cc(I)ccc1NC(=O)CNC(=O)OCc1ccccc1	i
COc1cc(C2C(C(=O)OCCc3ccccc3)=C(C)NC3=C2C(=O)CC(c2ccc(Cl)cc2)C3)ccc1OCc1ccccc1 (centres undefined)	i
Cc1ccc(-c2nnc(Nc3ccc(F)cc3)c3ccccc23)cc1S(=O)(=O)NCC1CCCO1 (centres undefined)	i
CC(=O)N(C1=C(N2CCCCC2)C(=O)c2ccccc2C1=O)c1cccc(Cl)c1	i
CC(C)NC(=O)N1CCN(C(=O)C(Cc2c[nH]c3ccccc23)NC(=O)Nc2cccc(C#N)c2)CC1C (centres undefined)	i
O=C(Nc1ccccc1)c1ccccc1OCC(O)Cn1c2ccccc2c2ccccc21 (centres undefined)	i
CCN(CC)CCN(Cc1cc2c(C)cc(C)cc2[nH]c1=O)C(=S)NCCCN(C)C	i
CCN1C(=Cc2ccc3ccccc3[n+]2CC)C=Cc2ccccc21	i
O=C(CSc1nc2ccccc2[nH]1)Nc1ccc(Cl)cc1Cl	i
O=C(CSc1nc2ccccc2c(=O)n1C1CC1)Nc1cc(C(F)(F)F)ccc1Cl	i
O=C1C(=Cc2ccccc2)Oc2c1ccc(O)c2CN1CCCCC1	i
Cc1nc(-c2nc3c(s2)CN(C(=O)COc2ccc(Cl)cc2)CC3)cs1	i
CCOc1ccc(-c2cn(-c3ccccc3)c3[n+]2CCS3)cc1	i
N#Cc1cc(Oc2ccc(-c3cnc4ccccc4n3)cc2)nc2ccccc12	i
CCc1ccc(CN2CCC(O)(c3ccc4oc(C(=O)Nc5ccc6c(c5)OCO6)cc4c3)CC2)cc1	i
Cc1ccc(Cn2c(=N)n(CC(O)c3ccc(Cl)c(Cl)c3)c3ccccc32)cc1 (centres undefined)	i
Cc1sc2ncn(CC(=O)N(C)Cc3ccccc3)c(=O)c2c1S(=O)(=O)N1CCOCC1	i
COC(=O)c1ccc(Nc2nc(NCc3ccco3)c3ccccc3n2)cc1	i
CN(C)c1ccc(/C=C/C=C/c2cccc[n+]2C)cc1	i
COc1ccc(C2=C(c3ccc(OC)cc3)C3(c4ccccc4)C(=O)C2(c2ccccc2)C2C(=O)N(c4cc(Cl)ccc4C)C(=O)C23)cc1 (centres undefined)	i
O=[N+]([O-])c1ccc(S(=O)(=O)NCCCCNc2ccnc3cc(Cl)ccc23)cc1	i
Cc1c2oc3c(C)ccc(C(=O)N[C@@H]4C(=O)N[C@H](C(C)C)C(=O)N5CCC[C@H]5C(=O)N(C)CC(=O)N(C)[C@@H](C(C)C)C(=O)O[C@@H]4C)c3nc-2c(C(=O)N[C@@H]2C(=O)N[C@H](C(C)C)C(=O)N3CCC[C@H]3C(=O)N(C)CC(=O)N(C)[C@@H](C(C)C)C(=O)O[C@@H]2C)c(N)c1=O	i
COc1ccccc1N1CCN(Cc2cc(C(C)C)c(C)cc2O)CC1	i
COc1ccc(OC)c(C(C(=O)NC2CCCC2)N(C(=O)c2snc(C(N)=O)c2N)c2ccccc2OC)c1 (centres undefined)	i
COc1ccc(-c2c[n+](CC(=O)c3ccc([N+](=O)[O-])cc3)c3n2CCC3)cc1	i
Cc1cc(-c2ccc(O)c(CN3CCCCC3CO)c2)c2ccccc2n1 (centres undefined)	i
C=CCN1C(=Cc2cccc[n+]2C)Sc2ccccc21	i
Oc1ccc(-c2ccnc3cc(Cl)ccc23)cc1CNCCCn1ccnc1	i
COc1ccc(-n2c(CNC(=O)c3cccc4ccccc34)n[nH]c2=S)cc1	i
CC(=O)N1c2ccc([N+](=O)[O-])cc2C(C)(c2ccccc2)CC1(C)C (centres undefined)	i
Cc1ccc(NC(c2ccccc2)(c2ccccc2)c2ccccc2)cc1C	i

Further compounds:
SMILES	liver stage
C[n+]1c(/C=C/Nc2ccccc2)n(-c2ccccc2)c2ccc(Cl)cc21	i
CCOC(=O)CCS(=O)(=O)c1ccc(Br)cc1	i
CCC(=C/c1sc2ccc3ccccc3c2[n+]1C)/C=C1\Sc2ccc3ccccc3c2N1C	i
COc1cc(OC)cc(C(=O)NCC2Cc3cc(Cl)cc(-c4ccncc4)c3O2)c1 (centres undefined)	i
CC(=O)N(C1=C(N2CCCC2)C(=O)c2ccccc2C1=O)c1ccc(F)cc1	i
CCCN1CCc2c(sc3nc(SC)n(-c4ccccc4)c(=O)c23)C1	i
N=c1n(Cc2ccccc2)c2ccccc2n1CC(O)c1ccc(Cl)c(Cl)c1 (centres undefined)	i
CCCOC(=O)C1=C(C)NC2=C(C(=O)CC(c3ccc(OC)cc3)C2)C1c1cccc(F)c1 (centres undefined)	i
Cc1onc(-c2ccccc2)c1C(=O)N1CCC(CNc2c(-c3ccoc3)nc3ccccn23)CC1	i
COc1cc(OC)cc(C(=O)NCc2n[nH]c(=S)n2-c2cccc(C(F)(F)F)c2)c1	i
O=C(NCCc1ccccc1)c1cnc(NCCC2=CCCCC2)nc1NCC1CCCCC1	i
Cc1ccn2c(NC(C)(C)CC(C)(C)C)c(-c3ccccc3OC(=O)C3CCC3)nc2c1	i
OC(CN1CCN(CC=Cc2ccccc2)CC1)Cn1c2ccc(Cl)cc2c2cc(Cl)ccc21 (centres undefined)	i
COc1ccc(-c2nc3ccc(Cc4ccc5nc(-c6ccc(OC)cc6)[nH]c5c4)cc3[nH]2)cc1	i
CCCCN1Cc2ccc(C(=O)NCCN3CCOCC3)cc2N=C1c1ccc(OC)cc1	i
Cc1ccc2c(C)nc(N=C(N)N)nc2c1	i
Cn1nc(C(=O)NCc2ccc(F)cc2)c2c1CCC(N1CCC(CO)CC1)C2 (centres undefined)	i
COc1ccc(-n2c(CNc3cc(C(F)(F)F)ccc3Cl)nnc2SCc2ccccc2Cl)cc1	i
CC=Cc1n(C)c2ccccc2[n+]1C	i
Clc1ccc2c(N3CCCC3)ccnc2c1	i
CCCCOc1ccc(C(=O)Oc2ccccc2-c2nc3cc(C)ccn3c2NC(C)(C)CC(C)(C)C)cc1	i
CCN(CC)CCCC(C)Nc1nc(/C=C/c2ccccc2OC)nc2cc(Cl)ccc12 (centres undefined)	i
c1ccc(C2CC(C3CC(c4ccccc4)OC(c4ccccc4)C3)CC(c3ccccc3)O2)cc1 (centres undefined)	i
CCOC(=O)N1CCN(C(=O)C(NC(=O)C2CCC(C)CC2)C(C)C)CC1 (centres undefined)	i
Brc1ccc(Nc2nc3ccccc3nc2Nc2ccc(Br)cc2)cc1	i
CC1=C(CC(=O)c2cccs2)C(=O)c2ccccc2C1=O	i
CCOc1ccccc1C1NC(=O)NC(C)=C1C(=O)OCC(F)(F)C(F)(F)F (centres undefined)	i
O=C(Nc1cc(Cl)cc(Cl)c1)Nc1cccc(C(F)(F)F)c1	i
CC(C)CNC(=O)c1cnc(NCCCN(C)C)nc1NCC1CCCCC1	i

An excerpt; rates above refer to the full screens.
